T cruzi inh = inhibitors of intracellular T. cruzi growth, primary screen, luminescence, NIH3T3 host cells | actives 1.4% (n = 300,000) | AID 1885, 2009 | T. cruzi beta-gal in NIH3T3, 90 h | inhibition, % (concentration not given with the values);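 active = mean inhibition across valid replicates above about 55%, limit read from the data; inconclusive = mean below that limit but half or more replicates reach it; inactive = mean below it, under half of replicates reach it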;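 also: signal also drops with host cell toxicity which is not excluded here; 0% = plate median of DMSO wells and 100% = zero luminescence signal; higher percent means less beta-gal luminescence so fewer parasites; stock transfer was 50 nL into about 50 µL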
AF4-AF9 inh = inhibitors of AF4 peptide binding to AF9, primary screen, biochemical, AlphaScreen, biotin-AF4 peptide, FLAG-AF9, single point | inhibition, % at 10 µM | actives 0.47% (n = 350,000) | AID 651704, 2012;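 active = every replicate reaching a set inhibition limit, whatever the replicate mean, cut at about 25% in these data; inconclusive = mean inhibition reaches that limit but some replicates miss it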;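 also: 0% = plate neutral control median and 100% = total signal loss; the record names both 10 and 1 µM as test concentration; the first replicate is given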
Target sequence (P42568 whole entry, looked up): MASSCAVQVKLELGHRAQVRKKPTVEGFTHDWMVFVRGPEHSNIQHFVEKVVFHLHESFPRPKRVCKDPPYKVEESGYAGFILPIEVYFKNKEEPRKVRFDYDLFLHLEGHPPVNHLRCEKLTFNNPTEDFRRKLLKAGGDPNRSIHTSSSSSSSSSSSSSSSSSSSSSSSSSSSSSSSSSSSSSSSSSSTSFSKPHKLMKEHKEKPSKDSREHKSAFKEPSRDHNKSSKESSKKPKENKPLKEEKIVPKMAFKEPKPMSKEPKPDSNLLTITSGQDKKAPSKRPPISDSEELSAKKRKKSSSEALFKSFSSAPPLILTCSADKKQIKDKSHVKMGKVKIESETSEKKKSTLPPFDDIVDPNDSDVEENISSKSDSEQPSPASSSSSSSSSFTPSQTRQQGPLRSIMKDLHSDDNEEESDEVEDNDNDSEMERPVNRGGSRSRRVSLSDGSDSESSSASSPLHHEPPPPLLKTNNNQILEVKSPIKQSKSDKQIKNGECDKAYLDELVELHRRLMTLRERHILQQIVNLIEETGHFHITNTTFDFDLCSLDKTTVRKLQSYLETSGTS
Ecoli rRNA inh = reduced GFP signal of wild-type E. coli, primary screen, bacterial rRNA inhibitor project, GFP/RFP fluorescence, OD600, single point | E. coli WT GFP vs humanized-ribosome RFP mutants, 24 h; hits give low values; DMSO median 0, no signal -100 | AID 720706, 2013 | GFP signal change (wild-type ribosome), % (concentration not given with the values) | actives 1.6% (n = 350,000);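 active = significant combined selectivity score with lowered wild-type GFP, culture density cut under 30%, mutant RFP and density less affected; inactive = any of these conditions unmet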; also: one replicate is shown; some compounds called inactive have numbers as strong as hits
Calb FLC = C. albicans growth inhibition with fluconazole, primary screen, CaCi-2 strain, Alamar Blue fluorescence; C. albicans CaCi-2 (fluconazole-resistant clinical isolate) + fluconazole, 48 h; growth inhibition, % (concentration not given with the values); actives 0.57% (n = 300,000); AID 1979, 2009;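 active = most replicates above 75%; inconclusive = exactly half above 75%; inactive = most below 75%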;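 also: all wells also contain fluconazole at 8 µg/ml as a sub-toxic cotreatment; 0% = median of DMSO wells and 100% = median of geldanamycin control wells; wells of about 8 µL received 7.5 nL stock; the first replicate is given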
ALR H2O2 inh = inhibitors of human ALR sulfhydryl oxidase, primary screen, biochemical, H2O2 detection, HRP-luminol luminescence, single point; purified ALR, DTT oxidation; inhibition, % (no concentration beside the values); actives 3.8% (n = 290,000); AID 485317, 2010;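 active = mean and each replicate at 75% or more; inconclusive = only one of the two met; inactive = neither met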;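 also: stock transfer was 7.5 nL into about 7.5 µL; 0% = neutral wells and 100% = wells with inactivated enzyme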
Target sequence (P55789 whole entry, looked up): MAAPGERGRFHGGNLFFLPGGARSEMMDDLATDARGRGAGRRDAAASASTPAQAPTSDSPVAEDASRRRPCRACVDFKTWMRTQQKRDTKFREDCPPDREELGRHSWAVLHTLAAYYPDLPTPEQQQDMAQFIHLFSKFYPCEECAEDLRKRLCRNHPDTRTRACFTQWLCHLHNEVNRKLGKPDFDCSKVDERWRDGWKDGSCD
FGF22 binding = binders of human FGF22 protein, primary screen, FGF22 synaptogenesis inhibitor project, biophysical, thermal shift, single point; Fibroblast growth factor 22 (Homo sapiens), Q9HCT0; recombinant FGF22 thermal shift, SYPRO orange fluorescence; percent of sucrose octasulfate shift, DMSO zero; calls only at 9.99 µM; actives 1.5% (n = 340,000); AID 651658, 2012;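 active = melting point raised past a set limit in the mean and every replicate; inconclusive = no clear call; three in four hits are not shown here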
Target sequence (Q9HCT0 whole entry, looked up): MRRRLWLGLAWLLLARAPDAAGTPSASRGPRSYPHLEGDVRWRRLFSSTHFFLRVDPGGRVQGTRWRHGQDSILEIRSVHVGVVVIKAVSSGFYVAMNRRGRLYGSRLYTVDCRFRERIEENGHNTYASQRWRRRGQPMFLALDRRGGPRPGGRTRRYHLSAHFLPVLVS
RanGTP-Impb inh = inhibitors of RanGTP-importin-beta interaction, primary screen, biochemical, FRET, CFP-Ran, YFP-importin-beta, homogeneous. inhibition, % (no concentration beside the values). cell-free CFP-Ran/YFP-importin-beta FRET ratio. actives 1.1% (n = 300,000). Ran GTPase (GTP-bound) - importin-beta complex. AID 2216, 2009;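 active = most replicates above 15%; inconclusive = exactly half above 15%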;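 also: 0% = DMSO wells and 100% = Ran loaded with GDP instead of GTP; wells of about 40 µL received 100 nL stock; the first replicate is given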
Beta apoptosis = inhibitors of cytokine-induced beta cell apoptosis, primary screen, luminescence; protection from apoptosis, % (no concentration beside the values); AID 435005, 2010; actives 0.8% (n = 300,000); INS-1E cytokine-induced death, ATP luminescence, 48 h; percent of positive-control rescue, neutral wells zero;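 active = all replicates at 75% or more, or half of them and the mean; inconclusive = half reach 75% but not the mean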;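 also: 0% = cytokine-treated negative control wells and 100% = positive control rescue; higher means more ATP so stronger rescue from cytokine killing; wells of about 40 µL received 100 nL stock; the first replicate is given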
Ecoli rRNA inh OD600 = second read-out of Ecoli rRNA inh, no call of its own (marks repeat the call); OD600 change, %; measured here: OD600 growth;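 optical density of the mix in the first replicate; 0 = DMSO median and -100 = no signal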
Ecoli rRNA inh RFP = further read-out of Ecoli rRNA inh, marked with its call; RFP signal change, %; measured here: RFP humanized mutant strains;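 first replicate; 0 = DMSO median and -100 = no signal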
* marks the source's active call; other numbers are inactive results; i = inactive; ? = inconclusive; · = no result given; & = joins results of further samples.

smiles	AF4-AF9 inh	Ecoli rRNA inh OD600	Ecoli rRNA inh	T cruzi inh	ALR H2O2 inh	Ecoli rRNA inh RFP	Beta apoptosis	Calb FLC	RanGTP-Impb inh	FGF22 binding
Cc1ccc(N(CC(=O)NC2CCCC2)C(=O)CCCC(=O)Nc2ccccn2)cc1C	·	-11.1	-10.4	12.8	-7.8	3.3	6.8	-14.7	-1.5	·
ONC(=Nc1ccccc1Cl)c1ccccc1Cl	5.8	12.9*	-31.5*	-13.0	22.9	-3.5*	-11.6	29.9	8.7	i
CCn1c(O)c(N=NC(=S)NCC2CCCO2)c2ccccc21 (stereo not given)	2.6	-12.9	-13.9	34.3	4.1	-2.3	11.4	8.1	-1.8	i
N#Cc1c(-c2ccccc2)cc(C2CC2)nc1SCC(=O)O	-6.3	-14.8	-16.4	4.6	20.7	4.3	-4.6	10.0	-3.2	i
COc1cc2nc(SCC(=O)c3ccc(Br)cc3)n3nc(C)nc3c2cc1OC	0.0	3.8	7.2	10.0	-3.9	-4.1	3.8	-12.1	-0.8	i
CCOC(=O)c1[nH]c2ccccc2c1NC(=O)CCN1CCN(C(=O)OCC)CC1	·	·	·	6.2	-2.9	·	1.2	9.5	-2.9	·
Cc1c(Cl)c(-c2n[nH]c(=S)n2-c2ccc(F)cc2)nn1C	·	·	·	2.3	91.2*	·	-1.7	0.1	0.7	·
CCN(CC)C1=N/C(=C\c2ccco2)C(=O)N1c1ccccc1	·	·	·	-5.7	28.0	·	1.0	-5.0	5.8	·
CCOc1ccc(CCNC(=O)c2nnc(Cc3ccc(F)cc3)o2)cc1OCC	-9.0	7.3	8.2	7.5	·	1.0	-11.4	18.8	3.6	i
c1ccc2c(Nc3ccc4c(c3)OCCO4)c3c(nc2c1)CCC3	10.6	-16.4	-1.2	33.5	80.0*	5.3	24.5	44.5	5.6	i
CC1CCCCC12NC(=O)N(CC(=O)Nc1sccc1C(N)=O)C2=O (stereo not given)	-6.5	·	·	·	48.0	·	-6.6	·	·	i
Cc1ccc(CNC(=O)CCNC(=O)N2CCn3c2nc2ccccc23)cc1	-0.4	6.8	7.7	13.5	93.9*	2.4	-0.3	3.5	1.3	i
Cn1c(Oc2ccccc2NCc2cc(Br)ccc2O)cc(=O)n(C)c1=O	·	·	·	-4.1	·	·	10.1	-2.3	0.0	·
Cc1cc(C)nc(NS(=O)(=O)c2ccc(NC(=O)CCC(=O)O)cc2)n1	-5.2	·	·	1.3	·	·	3.4	-0.9	7.0	i
CCOc1cc(N2CCOCC2)c(OCC)cc1NC(=O)c1ccc(-n2ccnc2)c([N+](=O)[O-])c1	3.2	5.8	1.2	25.1	·	-0.6	12.7	13.0	-1.0	i
O=C(Nc1cccc2c1CCCC2)c1ccco1	1.8	-12.1*	-21.0*	-33.9	-4.9	-8.6*	-4.1	7.7	6.4	i
COc1cccc(C(c2c(C)[nH]n(-c3ccccc3)c2=O)c2c(C)[nH]n(-c3ccccc3)c2=O)c1O	3.8	3.2	0.6	-16.4	-8.1	0.6	3.6	5.7	2.2	i
Cc1cc(C)c(S(=O)(=O)N2CCN=C2c2ccccc2)cc1C	·	·	·	-3.6	-2.6	·	-6.7	-0.9	1.2	·
COc1ccc(S(=O)(=O)N2CCOCC2)cc1C(=O)Nc1nc2ccccc2s1	·	·	·	11.3	-0.7	·	-1.7	-11.1	0.8	·
Cc1ccc(C(=O)Nc2ccccc2C(=O)NC(CC(=O)O)C(=O)O)cc1 (stereo not given)	·	·	·	-22.8	0.6	·	0.3	-8.4	5.3	·
Cc1n[nH]c(C)c1S(=O)(=O)N(CC(=O)Nc1ccc2c(c1)OCCO2)c1ccc(C(C)C)cc1	-0.3	2.7	-4.9	-7.3	-28.7	-7.3	-1.3	8.1	-2.0	i
Cc1ccc(S(=O)(=O)NC(=O)NCC2CCN(S(=O)(=O)c3ccccc3)CC2)cc1	-0.8	6.5	7.2	8.7	4.6	-0.5	-3.2	-0.1	1.3	i
CCN(CC(=O)Nc1ccc(NC(C)=O)cc1)C(=O)Cc1ccc(S(=O)(=O)N2CCOCC2)s1	-9.0	13.4	6.5	-4.4	-3.6	0.0	-3.6	-5.2	-4.5	i
Cc1cc(C)cc(OCC(=O)OCC(=O)N2CCc3ccccc32)c1	-1.5	8.1	2.4	0.6	·	0.7	-4.5	-3.8	-2.7	i
COc1cc(OC)cc(C(=O)NCC(=O)OCC(=O)C(C)(C)C)c1	-7.2	9.7	2.1	-22.1	-2.9	0.8	-1.1	3.7	-1.7	i
C=CCSc1nc(N)c(C#N)c(-c2ccc(C)cc2)c1C#N	·	·	·	26.9	-1.6	·	·	?	8.0	·
COc1ccc(NC(=O)CSc2nc(N)c(C(=O)Nc3ccc(N(C)C)cc3)s2)cc1	·	·	·	0.6	98.7*	·	2.0	-2.6	3.8	·
COc1cc(C(=O)Oc2cccnc2)cc(OC)c1OC	-0.3	12.1	13.7	-4.2	61.9	2.9	2.1	4.0	-0.5	i
FC(F)(F)c1ccc(C2[C@H]3CN(Cc4ccc(-c5ccccc5)cc4)[C@H](c4ccccc4)C34CC2(c2ccccc2)C4)cc1 (stereo not given in full)	-1.8	9.0	14.8	-11.9	0.6	-4.3	-7.3	-1.2	-2.7	i
Cn1nnnc1SCC1=C(C(=O)O)N2C(=O)C(NC(=O)C3CC3c3ccccc3)C2SC1 (stereo not given)	-1.0	13.7	19.7	-1.5	-1.4	3.3	-12.2	-5.4	-3.4	i
COc1cc(/C=C2/C(=O)N(c3ccc(C(=O)O)cc3)N=C2C)cc(OC)c1O	-0.2	-1.5	1.4	-1.2	92.9*	7.7	-2.1	8.0	5.8	i
Cc1nn(Cc2ccccc2)c(C)c1/C=N/NC(=O)CNc1cccc(C(F)(F)F)c1	-14.4	-4.3	-9.7	39.5	4.7	-0.4	-7.2	48.5	4.7	i
CCOc1ccc(CCNC(=O)c2nnn(CC(=O)Nc3ccc(OC)cc3)c2N)cc1OCC	-12.4	18.9	10.3	-7.9	0.2	0.6	-1.1	-10.8	22.9	i
CCCN1CCC(N(CCc2ccccc2)Cc2ccccc2)CC1	5.9	-23.9	-10.4	2.3	-6.0	2.2	8.1	-34.9	2.0	i
Cc1ccc(CNC(=O)C2CCCN(c3nn4c(=O)cc(C)nc4s3)C2)cc1 (stereo not given)	0.0	5.9	6.5	1.8	14.1	-4.4	-1.1	-12.1	2.4	i
O=C(CN(c1ccccc1)S(=O)(=O)c1ccc(F)cc1)N1CCCCCC1	·	·	·	7.3	4.4	·	-1.6	-0.7	7.6	·
CC(CCc1ccccc1)NC(=O)C1CC1 (stereo not given)	-2.3	0.7	-0.3	2.6	0.0	-0.1	-1.0	-1.0	2.7	i
Cc1nc(C(=O)NNC(=O)c2ccccc2Cl)c(C(F)(F)F)o1	-1.4	-10.3	-2.0	2.9	-2.0	1.7	4.0	-0.6	-1.1	i
O=C(Nc1ccc(Cl)cn1)C1CCN(S(=O)(=O)c2cccs2)CC1	0.0	9.5	11.3	12.5	-9.8	-0.2	6.1	?	1.1	i
COc1ccc(CC(=O)Nc2cccc(-c3nnc(-c4ccc(C)cc4)o3)c2)cc1OC	-41.1	7.6&12.4	16.6&14.7	15.9	-0.4	4.9&-2.1	42.2	?	?	i
Cc1cc(NC(=O)c2cc(CC(C)C)on2)n(-c2ccccc2)n1	-4.3	-1.6	3.7	-1.7	-1.2	-9.7	-5.0	-1.5	0.5	i
Cc1cc(C)nc(SCc2ccc(C(=O)N/N=C/c3ccccc3C(=O)O)cc2)n1	-2.7	12.0	1.9	7.7	91.1*	0.9	-4.3	5.0	-1.3	i
O=C(CSCc1ccc(Br)cc1)Nc1ccc(S(=O)(=O)N2CCCCCC2)cc1	·	·	·	2.7	-6.5	·	-3.3	23.1	3.6	·
CCOC(=O)c1c(C)[nH]c(C(=O)CN2CCOCC2)c1C	·	·	·	0.3	-1.9	·	-5.6	5.0	6.9	·
CC(C)CNC(=O)CN1C(=O)NC2(CCCc3ccccc32)C1=O (stereo not given)	-2.0	9.6	1.0	-12.0	-6.1	-1.0	2.8	-5.7	-4.8	i
O=C1C2C3C=CC(C3)C2C(=O)N1Cc1ccccc1 (stereo not given)	·	·	·	-0.1	8.3	·	-7.2	-22.3	?	·
CC(C)(C)C(=O)Nc1nnc(SCC(=O)Nc2ccc3c(c2)OCO3)s1	·	·	·	3.4	-17.6	·	2.5	3.7	-1.8	·
O=C(Cn1nc(-c2ccco2)ccc1=O)Nc1cc(Cl)ccc1Cl	-1.9	10.5	8.6	3.4	2.7	1.3	-4.4	·	6.3	i
CC(C)CN1CCN=C1N(C)C	-1.1	-8.2	-2.3	·	-17.1	-0.8	-2.5	·	·	i
FC(F)(F)C(Oc1nc(NC2CCCCC2)nc(N2CCOCC2)n1)C(F)(F)F	·	·	·	27.7	-16.6	·	-2.6	-8.0	1.1	·
N#Cc1c(N)n(CCNC(=O)c2ccccc2)c2nc3ccccc3nc12	-2.0	4.9	0.0	-4.2	-43.9	3.3	-4.1	3.6	58.1*	i
CCOC(=O)c1[nH]c2ccc(C)cc2c1N=C(C)N(C)C	·	·	·	10.9	62.4	·	-1.0	-9.8	-6.7	·
O=C(CSC1CC(=O)N(CC(c2ccccc2)c2ccccc2)C1=O)Nc1ccc(Cl)cc1 (stereo not given)	·	·	·	18.5	?	·	-12.8	-2.8	0.8	·
COC(=O)C1CCCN1C(=O)C12CC3CC(CC(C3)C1)C2 (stereo not given)	-1.1	-3.9	-2.1	-8.3	-2.7	0.1	12.5	-8.1	-0.5	i
CCCc1cc(C(=O)N(C2CCCCC2)C2CCCCC2)no1	-4.8	-26.2	-11.4	25.3	-26.7	-3.0	5.6	2.6	0.1	i
Cc1nn(CC(=O)Nc2ccc3c(c2)nc(CN2CCCC2)n3C)c(=O)c2ccccc12	·	12.6	6.8	-5.8	-6.7	-0.7	-6.4	7.1	-2.0	·
O=C(NCCc1ccc(Cl)cc1)c1cccnc1	·	·	·	-14.7	-1.1	·	-4.4	-2.4	-3.8	·

Screening data from PubChem BioAssay.

A portion of the library, so the mix of outcomes need not match the whole.
